Rango-impB inh: qHTS Assay for Inhibitors of Rango (Ran-regulated importin-beta cargo) - Importin beta complex formation | Rango CFP/YFP FRET sensor + importin beta, 45 min | 340,000 tested, 0.031% active | Potency, µM (doses to about 92.2 µM), for inactives: at the highest dose inhibition of complex formation; active = rising FRET ratio curve, often small or poorly fitted; inconclusive = mostly compound fluorescence or quenching in the first reads; inactive = flat curves in all reads;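 also: potency is read from the fitted curve at half-maximal effect; 0% = DMSO wells and 100% = buffer wells lacking importin beta; nearly all actives have a fitted effect of over 15% in size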
Target sequence (Q14974 whole entry, looked up): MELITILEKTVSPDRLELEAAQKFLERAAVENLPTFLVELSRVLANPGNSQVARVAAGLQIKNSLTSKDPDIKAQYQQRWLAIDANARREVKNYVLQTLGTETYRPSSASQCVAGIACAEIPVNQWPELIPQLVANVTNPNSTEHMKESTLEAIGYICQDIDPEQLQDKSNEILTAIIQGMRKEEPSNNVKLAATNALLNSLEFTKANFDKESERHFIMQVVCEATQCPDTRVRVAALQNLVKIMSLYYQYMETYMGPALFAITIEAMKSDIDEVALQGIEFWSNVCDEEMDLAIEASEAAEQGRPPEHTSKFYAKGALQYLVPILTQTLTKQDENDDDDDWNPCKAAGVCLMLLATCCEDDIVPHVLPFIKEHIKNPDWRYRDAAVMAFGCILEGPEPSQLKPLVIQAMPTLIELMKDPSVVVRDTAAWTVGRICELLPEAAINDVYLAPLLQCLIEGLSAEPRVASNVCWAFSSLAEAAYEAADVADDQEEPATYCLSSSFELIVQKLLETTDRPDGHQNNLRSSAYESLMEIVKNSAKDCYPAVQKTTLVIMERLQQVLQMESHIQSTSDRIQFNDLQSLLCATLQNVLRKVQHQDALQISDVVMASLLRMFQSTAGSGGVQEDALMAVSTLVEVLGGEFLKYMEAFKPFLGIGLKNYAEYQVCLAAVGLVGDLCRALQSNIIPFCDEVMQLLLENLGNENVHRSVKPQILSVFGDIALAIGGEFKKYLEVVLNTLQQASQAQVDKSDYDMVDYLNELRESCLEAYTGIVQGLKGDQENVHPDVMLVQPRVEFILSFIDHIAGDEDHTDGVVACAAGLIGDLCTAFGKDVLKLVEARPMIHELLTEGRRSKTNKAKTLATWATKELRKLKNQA
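FRET biosensor (snurportin 1 IBB flanked by EYFP and cerulean), 50 nM, with compound 5 min, then 0.125 microM importin beta in PBS, 1 mM DTT, 0.02% Tween-20, 0.1% BSA. CFP/YFP ratio read after 45 min at room temperature; pre-read flags interference.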
Rango release inh: qHTS Assay for Inhibitors of RanGTP induced Rango (Ran-regulated importin-beta cargo) - Importin beta complex dissociation. Snurportin-1 (Homo sapiens) + GTP-binding nuclear protein Ran (Homo sapiens) + Importin …. Biochemical FRET Rango-importin beta, RanGTP-induced dissociation. Potency, µM (series often up to 46.1 µM), for inactives: at the top dose activity change, negative = inhibition. 340,000 tested, 0.071% active; active means falling FRET ratio curve, often poorly fitted, with flat reads before Ran was added; inconclusive means other falling curves, or compound fluorescence or quenching; inactive means flat or rising ratio curve;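 also: potency is read from the fitted curve at half-maximal effect; % of control where 0% means no effect; nearly all actives have a fitted effect of over 45% in size; -100% = wells without RanGTP and RCC1; the record marks most hits as doubtful in a second field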
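FRET read at 45 min, room temperature: inhibitors block the CFP/YFP signal rise when RanGTP (0.6 uM Ran, 2 mM GTP, 0.2 uM RCC1) frees Rango (0.1 uM) from importin beta (0.25 uM). Pre-read after 5 min compound exposure flags interference.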
miR-21 reporter: qHTS Assay for Modulators of miRNAs and/orActivators of miR-21 | 340,000 tested, under 10 active | HeLa miR-21 FLuc reporter, luciferase, 48 h | Potency, µM (titrated, usually from 38.3 µM), inactives show top-dose reporter change, positive = more light; active = well fitted rising curve with a large enough effect; inconclusive = small, poorly fitted or top-dose-only effect; inactive = no such curve, though single readings can be large or run the other way;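 also: % of control where 0% means no effect; miR-21 action dims this reporter so a rising signal means less miR-21 action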
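Luminescence from a firefly luciferase reporter carrying a miR-21 binding site downstream, stably expressed under a CMV promoter in HeLa cells that make miR-21 endogenously, reports miRNA modulation after 48 h compound exposure up to approximately 40uM final.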
GLA inh pH 4.5: qHTS Assay for Inhibitors of Human alpha-Galactosidase at pH 4.5. Alpha-galactosidase A (Homo sapiens), P06280. purified enzyme, 4-MU-alpha-Gal fluorescence, pH 4.5. activity change, negative = inhibition, % at 105 µM. 230,000 tested, under 10 active. AID 1467, 2008; inconclusive = small, poorly fitted or top-dose-only inhibition, or a rising curve; inactive = flat fitted curve, though single readings scatter; no compound was filed as active;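 also: 0% = full activity with enzyme and -100% = basal without enzyme; dose as in the result columns while the protocol names 77 µM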
* = called active by the depositor; ? = inconclusive; . = no result given.

miR-21 reporter	Molecule	Rango-impB inh	Rango release inh	GLA inh pH 4.5
.	O=C(CSc1nc(C(F)(F)F)cc(=O)[nH]1)NCc1ccc2c(c1)OCO2	-3.9%	10.0%	.
.	O=c1[nH]c2cc([N+](=O)[O-])ccc2c2ccccc12	5.9%	0.8%	.
-0.8%	CCCn1nnnc1SCC(=O)NCc1cccs1	0.0%	-5.2%	-0.8
-19.4%	CCOc1ccc(-c2ncncc2-c2ccc(OC)cc2)c(O)c1	1.6%	0.5%	-1.7
4.6%	C=CCNC(=S)N1CCC(C(=O)c2ccc(OC)cc2)CC1	-0.2%	-4.4%	-5.1
-0.7%	CC(Cl)C(=O)Nc1ccccc1C#N (stereo not drawn)	-3.1%	9.3%	1.1
-9.0%	Cc1cc(-c2sccc2Br)nc(-n2cccc2)n1	?	-21.6%	10.6
-12.7%	O=C(c1ccco1)[C@@H]1[C@@H]2C(=O)N(c3ccc(Br)cc3)C(=O)[C@@H]2C2c3ccccc3C=CN21 (stereo partly drawn)	?	?	-14.4
-3.0%	COc1ccccc1C1C(C(=O)c2cc3ccccc3o2)=C(O)C(=O)N1CCN(C)C (stereo not drawn)	?	-7.3%	-8.1
-1.4%	COc1ccccc1NC(=S)NC(=O)CCCOc1ccc(Cl)cc1Cl	4.7%	-0.1%	-3.4
-4.1%	CNC(=O)C(=O)NCC1OCCN1S(=O)(=O)c1ccc(OC)c(OC)c1 (stereo not drawn)	5.0%	11.8%	.
14.1%	Cn1c(=O)n(CCc2ccccc2)c(=O)c2c1nc1n2CCN1Cc1ccco1	?	-0.7%	-7.8
2.7%	CC(C)CN1CCN(Cc2ccc(Oc3ncccn3)cc2)CC1CCO (stereo not drawn)	1.8%	7.2%	-4.9
-41.8%	COc1ccccc1C(=O)Nc1cccc(SC)c1	0.9%	?	-14.7
20.6%	CCOC(=O)c1c(C)n(-c2ccccc2)c2ccc(O)c(CN(C)C)c12	-0.2%	-0.7%	-8.2
-0.7%	CC(C)CNC(=O)C(=O)NCC1OCCCN1S(=O)(=O)c1cccs1 (stereo not drawn)	1.0%	-6.7%	.
-2.9%	CCCn1c2ccccc2c2nnc(SCCN3CCOCC3)nc21	5.9%	-1.2%	.
-0.8%	COc1ccc(-c2oc3cc(OC)c(O)c(OC)c3c(=O)c2OC)cc1O	3.5%	15.3%	-2.2
9.6%	N#CC(C#N)=C1C=C2C=C(N3CCCCC3)CCC2CC1 (stereo not drawn)	?	?	-3.7
-0.9%	CCC(C(=O)OCC(=O)Nc1cccc(S(=O)(=O)NC2=NCCCCC2)c1)c1ccccc1 (stereo not drawn)	.	.	-11.4
-35.9%	CCOCC(=O)Nc1nc2ccc(C)cc2s1	-0.7%	-10.7%	-2.7
-12.5%	CC(C)c1cc(C(=O)N/N=C/C=C/c2ccccc2)n[nH]1	-0.1%	-4.5%	-4.3
28.6%	C=CCn1c(NC(=O)c2ccccc2Cl)c(C#N)c2nc3ccccc3nc21	?	?	-7.2
-11.2%	Cc1ccc(C)c(NC(=O)/C(C#N)=C/c2ccc[nH]2)c1	2.0%	0.9%	.
-49.5%	O=C1c2ccccc2C(=O)C1c1ccc(Cl)cc1	-0.1%	-0.5%	.
0.0%	Cn1nnnc1SCC(=O)Nc1nc(-c2ccccc2)c(-c2ccccc2)o1	-0.5%	4.1%	-1.4
-37.2%	CCc1nnc(N/N=C\c2ccc(OC(C)=O)c(OC)c2)n1N	2.3%	-14.6%	.
-82.4%	Cc1nnc(SCc2cccc3ccccc23)s1	0.4%	9.0%	-2.8
-6.9%	COc1ccc(CNC(=O)c2sc3nc4c(c(C(F)(F)F)c3c2N)CCC4)cc1	.	.	-15.5
-7.0%	Cc1cc(C)c2c(N)c(C(=O)N3CCCCCC3)sc2n1	-0.4%	0.1%	-4.7
-3.8%	Cn1c(SCC(=O)N2CCCC2)nnc1-c1cnccn1	-3.3%	17.0%	-17.1
0.1%	COc1ccc(N2CCN(C(=O)COc3ccc4c(C)cc(=O)oc4c3C)CC2)cc1	?	-7.0%	.
.	COc1ccc(N/C=C/C(=O)c2ccc(C)cc2)c([N+](=O)[O-])c1	3.9%	0.8%	.
.	COc1ccc(NC(=O)CN2C(=O)NC3(CCCCC3C)C2=O)cc1S(=O)(=O)N1CCOCC1 (stereo not drawn)	-2.3%	5.8%	.
-3.4%	COc1cc(OC)cc(C(=O)NCC(=O)OCc2cc(=O)oc3cc(OC)ccc23)c1	-4.2%	0.3%	-18.8
0.0%	COc1ccc(C(CNC(=O)c2ccc(-n3cnnn3)cc2)N2CCOCC2)cc1 (stereo not drawn)	-1.5%	-9.8%	4.6
-10.2%	Cc1cc2cc(CNC(=O)c3ccc(S(=O)(=O)N4CCOCC4)cc3)ccc2n1C	3.7%	-9.1%	-5.4
.	CSCCC(NC(=O)c1ccccc1Br)C(=O)NNC(=O)C1COc2ccccc2O1 (stereo not drawn)	-0.6%	-21.4%	.
-2.3%	Cc1ccc(C)c(N2CCN(C(=O)Cc3cn(C)c4ccccc34)CC2)c1	-2.4%	-9.2%	-0.3
-0.7%	N#CCc1nc2ccc(S(=O)(=O)N3CCOCC3)cc2s1	?	?	-7.8
-55.1%	COc1ccc2c(c1OC)C(=O)N(c1ccc(F)cc1)C2	-2.3%	2.1%	.
3.4%	Cc1cccc(Nc2c(F)c(F)c(F)c(F)c2C(=O)O)c1	-0.3%	2.9%	0.4
-15.4%	COC(=O)C1=C(C)N(c2cccc(OC)c2)C(=O)/C1=C\c1ccco1	-1.1%	-6.9%	-2.9
.	CC(=O)c1cccc(NC(=O)CN2C(=O)C(=O)N(Cc3ccco3)C2=O)c1	-0.2%	-5.0%	.
17.4%	Cc1cc(/C=C(/C#N)c2nc3ccccc3[nH]2)c(C)n1-c1cccc([N+](=O)[O-])c1	-0.7%	-24.8%	-9.9
-1.4%	NC(=O)CSc1nnc(-c2ccc([N+](=O)[O-])cc2)o1	-1.2%	0.8%	5.3
-20.5%	C/C(=N/NC(=O)c1ccc(Br)s1)c1cccnc1	0.4%	-5.7%	.
-1.2%	COc1ccc(C(=O)O)cc1S(=O)(=O)N(C)CCc1ccccn1	4.8%	-12.9%	-9.2
-0.5%	O=C(Cn1cnc2ccccc21)N/N=C/c1cccc([N+](=O)[O-])c1	2.4%	-14.8%	4.0
4.7%	CCC(C)NC(=O)c1nn(Cc2ccccc2)c(=O)c2ccccc12 (stereo not drawn)	2.3%	-6.1%	.
-0.7%	COC(=O)c1cc(OC)c(OC)c(OC)c1N	3.5%	13.0%	13.6
-8.3%	O=C(Nc1ccccc1)Oc1ccccc1N1CCOCC1	3.4%	-6.1%	-0.1
-46.5%	COCC(C)NC(=O)c1noc2c1CCc1cc(OC)ccc1-2 (stereo not drawn)	-2.5%	23.0%	-5.0
-4.1%	Cc1ccc(-n2c(Cc3cccc4ccccc34)n[nH]c2=S)c(C)c1	?	-13.5%	-2.2
0.0%	FC(F)(F)c1cc(-c2cccs2)nc2nc(N3CCOCC3)sc12	?	3.6%	9.7
3.3%	CCOc1ccc(NC(=O)C2CCCN(S(C)(=O)=O)C2)cc1 (stereo not drawn)	-3.0%	9.3%	.
-1.6%	CCCCOC(=O)C1=C(C)Nc2ncnn2C1c1cccc(OC)c1OC (stereo not drawn)	0.0%	1.1%	-2.0
20.4%	COc1ccc(CCNC(=O)[C@H](C)N2C(=O)N3CCc4c([nH]c5ccccc45)[C@@]3(C)C2=O)cc1OC	1.3%	?	.
1.7%	COC(=O)c1ccc(N2C(=O)CC(SCC(=O)Nc3ccc(OC)cc3)C2=O)cc1 (stereo not drawn)	-0.5%	-6.2%	2.3
2.2%	COc1ccc(CC(NC(C)=O)C(=O)NC2CCN(C(=O)c3cccc(Cl)c3)CC2)cc1OC (stereo not drawn)	-1.3%	-6.7%	.

Complete entries from above. Screens in order: miR-21 reporter	Rango-impB inh	Rango release inh	GLA inh pH 4.5
`CC(C)c1cc(C(=O)N/N=C/C=C/c2ccccc2)n[nH]1` in the list: -12.5%	-0.1%	-4.5%	-4.3
`COc1ccccc1C1C(C(=O)c2cc3ccccc3o2)=C(O)C(=O)N1CCN(C)C` (stereo not drawn) in the list: -3.0%	?	-7.3%	-8.1

Carrying on.
miR-21 reporter	Molecule	Rango-impB inh	Rango release inh	GLA inh pH 4.5
-0.7%	COc1ccc(Nc2nc(Cl)nc(N3CCN(c4ccc(OC)cc4)CC3)n2)cc1	.	.	-0.4
0.7%	CCN(C(=O)CSc1nnc(-c2cccs2)n1CC)C1CCS(=O)(=O)C1 (stereo not drawn)	-0.4%	0.7%	12.2
.	O=C1N[C@H](Cc2ccccc2)CO1	-6.4%	-1.5%	.
1.7%	CCN(CC)S(=O)(=O)N1CCC(C(=O)NC2CCCc3ccccc32)CC1 (stereo not drawn)	-0.2%	-5.6%	-1.7
-5.1%	CC(=O)n1nc(-c2cccnc2)nc1N	0.1%	16.4%	2.1
-0.2%	COc1ccc(-n2c(=O)cc(N3CCN(c4ccccc4F)CC3)[nH]c2=O)cc1	3.5%	5.9%	-17.4
5.1%	Cc1cc(=O)n2[nH]c(C(F)(F)F)c(-c3ccccc3)c2n1	0.4%	10.4%	.
0.9%	CCn1c(=O)c([N+](=O)[O-])c(NCc2ccc3c(c2)OCO3)c2ccccc21	?	5.3%	-4.4
5.2%	Cc1cc(C)c2cc(C(=O)N(C)C3CCN(C)CC3)[nH]c2c1	1.0%	-4.5%	4.0
-7.9%	CCC(CC)C(=O)Nc1cccc(/C(C)=N/NC(=O)c2ccccc2Cl)c1	1.8%	15.4%	-18.9
-1.0%	CCn1c(SCC(=O)N2CCCCC2C)nc2ccsc2c1=O (stereo not drawn)	3.7%	6.8%	6.9
1.4%	CNC(=O)C(=O)NCCN1CCN(C(=O)c2ccc([N+](=O)[O-])cc2)CC1	-3.6%	12.7%	5.4
-0.2%	COc1ccc(Nc2nc(N)nc(CSc3n[nH]c(-c4ccccc4)n3)n2)cc1	-4.7%	-8.9%	-2.9
-13.3%	CCOc1ccc(CNc2nc3ccccc3n2CCN2CCOCC2)cc1	2.8%	?	-6.0
-2.3%	O=C(Nc1ccc(NC(=O)c2ccco2)nc1)c1ccccn1	-2.3%	0.9%	0.3
-10.4%	O=c1c2cnn(-c3ccccc3)c2ncn1Cc1ccco1	-2.0%	1.0%	9.0
-1.5%	CCCOc1ccc(N2CC(C(=O)NC3=NCCS3)CC2=O)cc1 (stereo not drawn)	-11.6%	-10.3%	-0.3
-0.7%	CCn1nc(C)cc1C(=O)Sc1ccc(Cl)cc1Cl	-3.4%	9.5%	3.2
0.4%	CCC(=O)Nc1ccc(S(=O)(=O)Nc2ncccn2)cc1	0.1%	0.2%	-6.0
-0.2%	C/C(CC(=O)NC1CCCC1)=N\NC(=O)C1CCCCC1	-0.3%	2.6%	3.6
?	CCCCCCCn1c2c(c(=N)c3ccccc31)CCC2	-1.4%	-6.4%	0.2
4.1%	COc1ccc(C(=O)Nc2ccccc2)cc1NC(=O)c1ccc([N+](=O)[O-])cc1	-3.8%	-17.0%	.
3.5%	CCn1c(SCC(=O)N2CCN(c3ccc(F)cc3)CC2)nnc1-c1ccncc1	-0.5%	0.1%	1.6
-9.1%	O=C(COc1cc(Cl)ccc1Cl)Nc1nnc(CC(=O)N2CCOCC2)s1	-0.2%	-0.8%	-2.9
-61.4%	COc1ccc(CCNc2ncccc2C#N)cc1OC	5.9%	7.7%	.
-0.4%	COC(=O)CSc1nc2c(c(=O)n(C)c(=O)n2C)n1CCCc1ccccc1	0.4%	9.4%	3.3
.	CC(Oc1cccnc1[N+](=O)[O-])C(=O)N1CCc2ccccc21 (stereo not drawn)	2.8%	-13.2%	.
-1.9%	CNC(=S)N/N=C/c1cn(CCOc2ccc(OC)cc2)c2ccccc12	2.5%	8.8%	0.7

A portion of the library, so the mix of outcomes need not match the whole.
